Screening results (PubChem BioAssay)
Rango-impB inh: Rango-importin beta binding inhibition. Rango CFP/YFP FRET sensor + importin beta, 45 min. Potency, µM (titrated, usually from 92.2 µM), without a hit: at the highest dose inhibition of complex formation. Q14974. hit rate 0.031% among 340,000; active = rising FRET ratio curve, often small or poorly fitted; inconclusive = mostly compound fluorescence or quenching in the first reads; inactive = flat curves in all reads;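 note: potency is the fitted concentration of half-maximal effect; 0% = DMSO wells and 100% = buffer wells lacking importin beta; nearly all actives have a fitted effect of over 15% in size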
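FRET biosensor (snurportin 1 IBB flanked by EYFP and cerulean), 50 nM, with compound 5 min, then 0.125 microM importin beta in PBS, 1 mM DTT, 0.02% Tween-20, 0.1% BSA. CFP/YFP ratio read after 45 min at room temperature; pre-read flags interference.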
Rango dissoc inh: inhibitors of RanGTP-induced Rango-importin beta complex dissociation. Biochemical FRET Rango-importin beta, RanGTP-induced dissociation. Potency, µM (series often up to 46.1 µM), for inactives: at the top dose activity change, negative = inhibition. AID 540253. hit rate 0.071% among 340,000. O95149+P62826; active means falling FRET ratio curve, often poorly fitted, with flat reads before Ran was added; inconclusive means other falling curves, or compound fluorescence or quenching; inactive means flat or rising ratio curve;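 note: potency is the fitted concentration of half-maximal effect; % of control where 0% means no effect; nearly all actives have a fitted effect of over 45% in size; -100% = wells without RanGTP and RCC1; the record marks most hits as doubtful in a second field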
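Recombinant Rango FRET biosensor (EYFP–snurportin 1 IBB–cerulean CFP10) at 0.1 uM premixed with 0.25 uM importin beta in PBS, 1 mM DTT, 0.02% Tween-20, 0.1% BSA. Compound added 5 min; RanGTP-RCC1 (0.6 uM Ran, 2 mM GTP, 0.2 uM RCC1) then triggers release, read at 45 min.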
GLA inh pH 4.5: inhibitors of human alpha-galactosidase A at pH 4.5 | P06280 | purified enzyme, 4-MU-alpha-Gal fluorescence, pH 4.5 | activity change, negative = inhibition, % at 105 µM | 230,000 tested, under 10 active; inconclusive = small, poorly fitted or top-dose-only inhibition, or a rising curve; inactive = flat fitted curve, though single readings scatter; no compound was filed as active;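 note: 0% = full activity with enzyme and -100% = basal without enzyme; dose as in the result columns while the protocol names 77 µM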
Target sequence (P06280 whole entry, looked up): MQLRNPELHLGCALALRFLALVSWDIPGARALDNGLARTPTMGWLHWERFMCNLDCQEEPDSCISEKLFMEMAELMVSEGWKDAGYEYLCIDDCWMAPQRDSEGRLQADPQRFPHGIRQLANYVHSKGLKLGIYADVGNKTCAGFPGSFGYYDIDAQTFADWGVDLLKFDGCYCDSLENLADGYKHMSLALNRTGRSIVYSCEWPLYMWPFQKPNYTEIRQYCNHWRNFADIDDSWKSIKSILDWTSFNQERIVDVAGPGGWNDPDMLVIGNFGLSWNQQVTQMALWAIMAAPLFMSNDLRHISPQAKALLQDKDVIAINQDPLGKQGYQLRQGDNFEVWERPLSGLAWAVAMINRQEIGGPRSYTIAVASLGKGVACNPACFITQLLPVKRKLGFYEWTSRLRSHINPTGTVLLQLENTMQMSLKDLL
miR-21 FLuc: raises the signal of a miR-21 reporter; HeLa miR-21 FLuc reporter, luciferase, 48 h; Potency, µM (doses to about 38.3 µM), for the others: top-dose reporter change, positive = more light; 340,000 tested, under 10 active; AID 2288; active = well fitted rising curve with a large enough effect; inconclusive = small, poorly fitted or top-dose-only effect; inactive = no such curve, though single readings can be large or run the other way;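 note: % of control where 0% means no effect; miR-21 action dims this reporter so a rising signal means less miR-21 action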
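Luminescence from a firefly luciferase reporter carrying a miR-21 binding site downstream, stably expressed under a CMV promoter in HeLa cells that make miR-21 endogenously, reports miRNA modulation after 48 h compound exposure up to approximately 40uM final.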
Active calls of the source: *; & = joins results of further samples.

O=C1CC(Nc2ccc(N3CCOCC3)cc2)C(=O)N1c1ccccc1F (centres undefined) was read as Rango-impB inh 3.1%, Rango dissoc inh -7%, GLA inh pH 4.5 -9 and miR-21 FLuc -5%.
Screening COc1ccc(OC)c2[nH]c(=O)c(CCNC(=O)C3CCCCC3)cc12 returned Rango-impB inh 2.7%, Rango dissoc inh -4%, GLA inh pH 4.5 -23 and miR-21 FLuc -7%.
O=C(O)c1ccccc1-c1ccccc1C(=O)Nc1cccc2ccccc12 was read as Rango-impB inh -3.3%, Rango dissoc inh 3%, GLA inh pH 4.5 -3 and miR-21 FLuc -8%.
For O=C(c1ccc(CS(=O)Cc2ccc(Cl)cc2)o1)N1CCN(c2cccc(Cl)c2)CC1 (centres undefined) the results were Rango-impB inh -1.4%, Rango dissoc inh -11% and miR-21 FLuc 10%.
Cc1nn(-c2ccccc2)cc1/C=N/NC(=O)c1cccs1 was read as Rango-impB inh 0.2%, Rango dissoc inh 7%, GLA inh pH 4.5 -8 and miR-21 FLuc -44%.
CCCCCCC(=O)OCC(=O)c1ccc2c(c1)NC(=O)CO2 was read as Rango-impB inh -2.5%, Rango dissoc inh -15%, GLA inh pH 4.5 -2 and miR-21 FLuc 0%.
Screening O=C(CCC(=O)Nc1ccccc1Cl)NN=C1CCCC1 returned Rango-impB inh 1.1%, Rango dissoc inh 0% and miR-21 FLuc -2%.
For COc1ccc2nc(-c3cccc(N)c3)[nH]c2c1 the results were Rango-impB inh 0.6%, Rango dissoc inh 0%, GLA inh pH 4.5 -4 and miR-21 FLuc -10%.
`COc1cccc(NC(=O)Cn2cc(C#N)c3ccccc32)c1` gave Rango-impB inh -0.4%, Rango dissoc inh 5%, GLA inh pH 4.5 -8 and miR-21 FLuc 0%.
Screening O=C(NNC(=O)c1cncc(Br)c1)c1ccncc1 returned Rango-impB inh -0.3% and Rango dissoc inh -3%.
Screening CCCCCCn1c(C(C)NC(=O)c2ccco2)nc2ccccc21 (centres undefined) returned Rango-impB inh -6.8%, Rango dissoc inh 5%, GLA inh pH 4.5 -5 and miR-21 FLuc 17%.
For Cc1ccccc1CN(C)C(=O)COC(=O)c1ccc2[nH]c(C)c(C)c2c1 the results were Rango-impB inh -3.7% and Rango dissoc inh -8%.
For C=CCn1c(=N)n(CC(=O)O)c2ccccc21 the results were Rango-impB inh -1.0%, Rango dissoc inh -10%, GLA inh pH 4.5 3 and miR-21 FLuc -1%.
For CC(=O)Nc1ccc2c(c1)NC(=O)CC2 the results were Rango-impB inh -0.8%, Rango dissoc inh -6%, GLA inh pH 4.5 7 and miR-21 FLuc 0%.
For CCN(CC)S(=O)(=O)c1ccc(NC(=O)COC(=O)CCc2cc(OC)c(OC)c(OC)c2)cc1 the results were Rango-impB inh -0.9%, Rango dissoc inh -2%, GLA inh pH 4.5 -5 and miR-21 FLuc -1%.
For O=C(/C=C/c1cccs1)N1CCc2ccccc21 the results were Rango-impB inh 0.2%, Rango dissoc inh -2%, GLA inh pH 4.5 -1 and miR-21 FLuc -33%.
Screening O=C(c1ccc(Cn2c(=S)[nH]c3ccc(Br)cc3c2=O)cc1)N1CCN(C2CCCCC2)CC1 returned Rango-impB inh -1.5%, Rango dissoc inh -4%, GLA inh pH 4.5 -3 and miR-21 FLuc 1%.
Screening O=C(CNC(=S)N(Cc1ccccc1F)C1CCCCC1)NCCCN1CCOCC1 returned Rango-impB inh -1.3%, Rango dissoc inh 4%, GLA inh pH 4.5 11 and miR-21 FLuc -8%.
For CC(C)(C)N1C(=O)[C@H]2[C@@H](c3ccc(Br)cc3)N3C(=O)N(c4ccc(Br)cc4)C(=O)[C@@]3(Cc3ccccc3)[C@H]2C1=O the results were Rango-impB inh -0.1%, Rango dissoc inh 4% and miR-21 FLuc -9%.
`O=C(COC(=O)CCc1c[nH]c2ccccc12)Nc1ccc([N+](=O)[O-])cc1` gave Rango-impB inh 0.8%, Rango dissoc inh 0%, GLA inh pH 4.5 -1 and miR-21 FLuc 0%.
`Cc1ccc(S(=O)(=O)N(C)c2ccc(C(=O)N3CCC(C(N)=O)CC3)cc2)cc1` gave Rango-impB inh -0.6%, Rango dissoc inh -15%, GLA inh pH 4.5 17 and miR-21 FLuc -1%.
For O=C(CN(Cc1cccs1)C(=O)CNS(=O)(=O)c1ccc(Cl)cc1)NCc1ccco1 the results were Rango-impB inh -4.2%, Rango dissoc inh -11%, GLA inh pH 4.5 4 and miR-21 FLuc 3%.
Screening CCc1noc(C)c1C(=O)Nc1nc2c(C)cccc2s1 returned Rango-impB inh 3.6% and Rango dissoc inh -10%.
For CN(C)c1cc(N/N=C\c2ccccc2)nc(N(C)C)n1 the results were Rango-impB inh 10%, Rango dissoc inh -3%, GLA inh pH 4.5 0 and miR-21 FLuc 2%.
Screening Clc1ccc(CN2CCCCCCC2)cc1 returned Rango-impB inh 0.6%, Rango dissoc inh -9%, GLA inh pH 4.5 7 and miR-21 FLuc 0%.
For COC(=O)c1cnn(-c2cc(Oc3cccc(C)c3)ncn2)c1N the results were Rango-impB inh 5.1%, Rango dissoc inh 0%, GLA inh pH 4.5 -3 and miR-21 FLuc -16%.
Screening COc1cc(/C=C2\C(=N)N3N=C(S(C)(=O)=O)SC3=NC2=O)cc(OC)c1OCCOc1cccc(C)c1 returned Rango-impB inh -1.2%, Rango dissoc inh 7% and miR-21 FLuc -10%.
Screening O=C(COc1ccccc1[N+](=O)[O-])N(Cc1ccccc1)c1ccccn1 returned Rango-impB inh 1.5%, Rango dissoc inh 19%, GLA inh pH 4.5 inconclusive and miR-21 FLuc -17%.
Screening Cc1csc(NC(=O)c2c(-c3c(Cl)cccc3Cl)noc2C)n1 returned Rango-impB inh 1.2%, Rango dissoc inh 0%, GLA inh pH 4.5 6 and miR-21 FLuc 9%.
Screening O=C(CCCN1C(=O)/C(=C/c2ccccc2Cl)SC1=S)NNC(=O)c1ccc(Cl)cc1Cl returned Rango-impB inh -0.5%, Rango dissoc inh -2%, GLA inh pH 4.5 3 and miR-21 FLuc inconclusive.
Cc1ccc2nc(SCC(=O)OCc3ccccc3)nc(=O)n2c1 was read as Rango-impB inh 3.1% and Rango dissoc inh -11%.
Screening CN1CCN(C(=O)c2ccccc2-c2nc(-c3ccccc3)no2)CC1 returned Rango-impB inh -3.9%, Rango dissoc inh 1%, GLA inh pH 4.5 11 and miR-21 FLuc -24%.
For CCN1CCN(c2cc(C)c3cc(NC(=O)c4cccnc4Cl)ccc3n2)CC1 the results were Rango-impB inh -0.1%, Rango dissoc inh 0%, GLA inh pH 4.5 1 and miR-21 FLuc -5%.
`CC/C=C/C(=O)N1CC2(CC(c3cccc(NC(=O)COc4ccc(Cl)cc4)c3)=NO2)C[C@H]1C(N)=O` (some centres undefined) gave Rango-impB inh -0.4%, Rango dissoc inh inconclusive, GLA inh pH 4.5 -9 and miR-21 FLuc 26%.
`CCC(CO)Oc1cc(NCc2ccc(C)c(C)c2)c2ncn(C(C)C)c2c1` (centres undefined) gave Rango-impB inh 2.9% and Rango dissoc inh -5%.
For CN1CCN(C2=Cc3cc(Cl)ccc3Sc3cc(F)ccc32)CC1 the results were Rango-impB inh 0.8%, Rango dissoc inh 2%, GLA inh pH 4.5 3 and miR-21 FLuc 21%.
For CCC(=O)c1ccc(OCC(=O)OCC(=O)Nc2cccc(S(=O)(=O)N3CCOCC3)c2)cc1 the results were Rango-impB inh -2.5% and Rango dissoc inh -3%.
CCOc1ccc(C(=O)O)cc1OC was read as Rango-impB inh 0.0%, Rango dissoc inh 16%, GLA inh pH 4.5 2 and miR-21 FLuc -3%.
For CC1CCC2C(=O)N(c3ccc(C(=O)Oc4cccc5cccnc45)cc3)C(=O)C2C1 (centres undefined) the results were Rango-impB inh 0.0%, Rango dissoc inh -2%, GLA inh pH 4.5 1 and miR-21 FLuc -3%.
For O=C(CN1C(=O)NC2(CCCC2)C1=O)Nc1cc(C(F)(F)F)ccc1N1CCCCC1 the results were Rango-impB inh inconclusive and Rango dissoc inh 13%.
`Cc1ccc(N(CC(O)CN2CCCCC2)S(=O)(=O)c2ccccc2)cc1` (centres undefined) gave Rango-impB inh inconclusive, Rango dissoc inh -10% and miR-21 FLuc -1%.
Cc1cccc(C(=O)NCCC(=O)Nc2ccc(C)c(F)c2)c1 was read as Rango-impB inh -0.1%, Rango dissoc inh -1% and miR-21 FLuc -6%.
For CC1(OC(=O)CCc2ccccc2)C(=O)C=C2C=C(c3ccc(C#N)cc3)N(Cc3ccccc3)C=C2C1=O (centres undefined) the results were Rango-impB inh inconclusive, Rango dissoc inh inconclusive, GLA inh pH 4.5 14&-15 and miR-21 FLuc 6%.
For CCCn1c2c(c(O)c(C(=O)Nc3nc4ccccc4s3)c1=O)CCCC2 the results were Rango-impB inh -2.0%, Rango dissoc inh 11%, GLA inh pH 4.5 2 and miR-21 FLuc -6%.
`COc1cc2c(cc1OC)C1=C(C#N)CC/C(=N\S(=O)(=O)c3cccc(Cl)c3)N1CC2` gave Rango-impB inh 0.8%, Rango dissoc inh 21%, GLA inh pH 4.5 -7 and miR-21 FLuc -21%.

Sorted by SMILES length (largest number first): three of the compounds above
For CCC(=O)c1ccc(OCC(=O)OCC(=O)Nc2cccc(S(=O)(=O)N3CCOCC3)c2)cc1 the results were Rango-impB inh -2.5% and Rango dissoc inh -3%.
For CCCn1c2c(c(O)c(C(=O)Nc3nc4ccccc4s3)c1=O)CCCC2 the results were Rango-impB inh -2.0%, Rango dissoc inh 11%, GLA inh pH 4.5 2 and miR-21 FLuc -6%.
Screening CN1CCN(C(=O)c2ccccc2-c2nc(-c3ccccc3)no2)CC1 returned Rango-impB inh -3.9%, Rango dissoc inh 1%, GLA inh pH 4.5 11 and miR-21 FLuc -24%.

More structures follow.
COCCCn1cnnc1SCC(=O)Nc1ccc(S(=O)(=O)N2CCCC2)cc1 was read as Rango-impB inh 0.2%, Rango dissoc inh 2%, GLA inh pH 4.5 -15 and miR-21 FLuc 1%.
Screening COc1ccc(N2C(=O)CC(N(Cc3ccc(S(N)(=O)=O)cc3)C(C)=O)C2=O)cc1 (centres undefined) returned Rango-impB inh -0.9%, Rango dissoc inh 8%, GLA inh pH 4.5 -3 and miR-21 FLuc -7%.
`O=C(Nc1ccc(S(=O)(=O)Nc2ccccn2)cc1)c1cccc([N+](=O)[O-])c1` gave Rango-impB inh -1.9%, Rango dissoc inh 1% and miR-21 FLuc 1%.
For Cc1ccc(Nc2nc(-c3sc(NC(=O)c4ccco4)nc3C)cs2)cc1 the results were Rango-impB inh -2.7%, Rango dissoc inh inconclusive, GLA inh pH 4.5 0 and miR-21 FLuc -1%.
Screening CC1(C)CC(=O)C=C(c2cccs2)C1 returned Rango-impB inh -2.1% and Rango dissoc inh -2%.
Screening CCCOc1cccc(C(=O)Nc2cccnc2)c1 returned Rango-impB inh 1.2%, Rango dissoc inh -2%, GLA inh pH 4.5 5 and miR-21 FLuc -17%.
Screening CC(=O)Nc1ccc(S(=O)(=O)c2ccc([N+](=O)[O-])cc2)cc1 returned Rango-impB inh -0.6%, Rango dissoc inh -5% and miR-21 FLuc 9%.
`O=C(COc1ccc(F)c(Cl)c1)N1CCN(c2ccccn2)CC1` gave Rango-impB inh 0.0%, Rango dissoc inh -11% and miR-21 FLuc -4%.
For Cc1nn(CC2CCCCC2)c(N)c1-c1ccccc1 the results were Rango-impB inh 1.2%, Rango dissoc inh 3%, GLA inh pH 4.5 -4 and miR-21 FLuc -42%.
COc1ccc2ccccc2c1CNCc1ccccn1 was read as Rango-impB inh 0.8%, Rango dissoc inh -9%, GLA inh pH 4.5 1 and miR-21 FLuc -42%.
For CCCCNC(=O)c1cc2c(=O)n3cccc(C)c3nc2n(CCN2CCOCC2)c1=N the results were Rango-impB inh inconclusive, Rango dissoc inh inconclusive, GLA inh pH 4.5 15 and miR-21 FLuc -9%.
Screening CC(NC(=O)CCSc1nc(-c2ccc3c(c2)OCO3)cc(C(F)(F)F)n1)c1ccccc1 (centres undefined) returned Rango-impB inh 8.5%, Rango dissoc inh -6%, GLA inh pH 4.5 19 and miR-21 FLuc -8%.

This is a subset; the hit share may differ from the screen's.
